High-throughput results: PubChem, National Center for Advancing Translational Sciences (NCATS)
TSHR ag = agonists of human thyroid stimulating hormone receptor. P16473. HEK293-CNG-TSHR cells (CNG channel as cAMP sensor), membrane potential dye, cAMP. Potency, µM (highest dose often 57.1 µM), inactives show at the highest dose activation, actives largely listed as activators. 73,000 compounds, 0.48% hits; active = well fitted activation curve of enough size with the parental cells flat; inconclusive = any curve in the parental cells; inactive = parental cells flat and receptor cells flat or falling; note: potency is the fitted concentration of half-maximal effect; % of control where 0% means no effect; weak receptor curves with flat parental cells got no call and are not listed
Target sequence (P16473 whole entry, looked up): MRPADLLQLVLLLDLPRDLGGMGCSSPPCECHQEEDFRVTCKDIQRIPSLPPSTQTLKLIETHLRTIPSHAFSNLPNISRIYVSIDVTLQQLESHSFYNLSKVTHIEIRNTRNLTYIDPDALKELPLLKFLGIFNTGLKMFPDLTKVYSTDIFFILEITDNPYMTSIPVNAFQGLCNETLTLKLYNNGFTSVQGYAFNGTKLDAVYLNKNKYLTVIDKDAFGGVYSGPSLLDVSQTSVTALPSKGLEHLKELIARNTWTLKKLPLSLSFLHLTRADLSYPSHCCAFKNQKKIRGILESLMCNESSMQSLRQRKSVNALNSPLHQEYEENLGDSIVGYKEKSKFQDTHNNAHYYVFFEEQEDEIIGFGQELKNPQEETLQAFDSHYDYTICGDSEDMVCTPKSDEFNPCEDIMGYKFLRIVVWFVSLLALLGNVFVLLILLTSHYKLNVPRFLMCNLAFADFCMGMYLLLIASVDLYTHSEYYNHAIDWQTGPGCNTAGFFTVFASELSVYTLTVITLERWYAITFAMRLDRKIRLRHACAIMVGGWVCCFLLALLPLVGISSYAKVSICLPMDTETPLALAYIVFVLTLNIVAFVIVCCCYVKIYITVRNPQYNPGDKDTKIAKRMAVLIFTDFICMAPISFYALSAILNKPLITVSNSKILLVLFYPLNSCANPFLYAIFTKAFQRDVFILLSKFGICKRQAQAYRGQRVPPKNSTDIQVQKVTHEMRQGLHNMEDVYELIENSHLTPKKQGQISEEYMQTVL
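HEK 293 cells stably expressing TSHR and a cAMP-gated CNG channel; parental CNG-only cells as counterscreen. Cells preloaded 60 min with membrane potential dye plus 100 uM RO 20-1724, then compound 30 min; fluorescence read at 590 nm.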
Resorufin autofl = resorufin region autofluorescence; max dye-equivalent concentration, M; Compound fluorescence, resorufin region 547/598 nm, buffer; hits give high values; 59,000 compounds, 0.04% hits; active = above 10 nM dye equivalent; inconclusive = 1 to 10 nM; inactive = 1 nM or less; a few of its hits are not listed in these tables; note: highest value over a series up to 38 µM
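Tris 100 mM pH 8.0; compound added, 15 min RT; CCD imager read, ex 547 nm/em 598 nm; signal normalized to resorufin standard curve (six concentrations per plate) as dye-equivalent concentration.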
A488 autofl = compound autofluorescence in A488 spectral region; compound autofluorescence, A488 spectral region, dye equivalency; hits give high values; max dye equivalency, M; 59,000 compounds, 0.1% hits; AID 591; active = above 10 nM dye equivalent; inconclusive = 1 to 10 nM; inactive = 1 nM or less; about half of its hits are not listed in these tables;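 note: highest value over a series up to 38 µM; compound alone in buffer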
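Spectroscopic profiling in the A488 region: compounds in pH 8.0 Tris (100 mM), 15 min RT, CCD imaging with 480 nm excitation and 540 nm emission; responses normalized against A488 dye standards.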
A647 fluor = compound fluoresces in the A647 spectral region | Compound fluorescence, A647 channel (570/671 nm), Tris buffer | max dye-equivalent concentration, M | AID 592 | 59,000 tested, under 10 active; active means above 1 µM dye equivalent; inconclusive means 0.1 to 1 µM; inactive means 0.1 µM or less;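 note: values scaled relative to a standard on each plate; highest value over a series up to 38 µM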
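Spectral profiling of library compounds in pH 8.0 Tris: 15 min room-temperature incubation, single ex/em pair (570/671 nm), response normalized to Alexa 647 equivalents.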
AID923 = qHTS Assay for Allosteric/Competitive Inhibitors of Caspase-1: Spectroscopic Profiling in AFC Spectral Region | compound fluorescence, AFC spectral region (405/520 nm); almost no hit is shown here | Potency, µM (titrated, usually from 57.5 µM), for the others: at the top dose fluorescence increase, actives largely listed as activators | 75,000 compounds, 1.1% hits; active = well fitted activation curve with a large enough effect; inconclusive = small, poorly fitted or top-dose-only effect;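 note: potency is the fitted concentration of half-maximal effect; 0% is about no effect; scaled to a free AFC standard on each plate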
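Titrations up to 57 uM read every 20 sec for 3 min (405/520 nm) with 50 nM caspase 1 and 5 uM Ac-WEHD-AFC, pH 7.5 HEPES buffer. Fluorescence-vs-time intercept gave baseline, scaled against on-plate AFC standard.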
Active calls of the source: *; i = inactive; ? = inconclusive; . = no result given; [ ] = remark or other dose.

SMILES	TSHR ag	Resorufin autofl	A488 autofl	A647 fluor	AID923
CCCOC(=O)c1cccc(NC(=O)C(C)(C)C)c1	-10%	.	.	.	-1.4%
CCOC(=O)CSc1nc(N)cc(=O)[nH]1	1%[11.4 µM]	i	i	1e-09	-0.5%
CCOc1cc(NC(=O)c2ccccn2)c(OCC)cc1NC(=O)CC(C)C	8%	i	i	1.1e-08	-0.8%
COc1ccc(CCNC(=O)CSc2nnnn2Cc2ccc3c(c2)OCO3)cc1OC	-1%	i	i	6.5e-09	-1.6%
Cc1occc1-c1nc(-c2ccccn2)no1	4%	.	.	.	1.6%
N#Cc1nc(Cc2ccccc2)oc1N1CCN(c2ccccc2)CC1	?	i	i	3.9e-08	1.4%
CCOC(=O)c1ccc(COC(=O)c2nonc2N)cc1	-1%[11.4 µM]	i	i	2.5e-08	0.8%
COC(=O)C/C=C\[C@H](C)[C@@H](OCc1ccccc1Br)C(C)C	?	.	.	.	-2.3%[11.5 µM]
O=C(CCc1ccccc1)OCCN1CCOCC1	-1%[11.4 µM]	i	i	3.4e-08	1.7%
CN(C)C(=O)c1ccc(-c2ccc3ncnc(NC4CCNCC4)c3c2)cc1	-2%	i	i	3.6e-09	-0.7%

(continued)
SMILES	TSHR ag	Resorufin autofl	A488 autofl	A647 fluor	AID923
CCCCCCN=CC1=C(O)CC(C)(C)CC1=O	2%	i	i	1e-09	0.3%
CCc1nnc(NC(=O)CSc2nnc(-c3ccccc3NC(=O)c3ccccc3)o2)s1	5%	i	i	3.2e-08	0.2%
CCCOc1ccc(-c2cnc(SCC(N)=O)nc2N)cc1	?	i	i	4.1e-08	-1.3%
CS(=O)(=O)Nc1ccc(C(=O)NC2CCCC2)cc1	7%	i	i	1e-09	4.5%
CCOC1(NC(=O)c2ccccc2)C(C)=CC(=O)C=C1C	1%	i	i	1e-09	0.7%
CC(C(=O)c1ccccc1)n1cnc2ccccc2c1=O (configuration not stated)	?	i	i	1e-09	1.3%
CCCCOc1cccc(C(=O)O)c1	2%	i	i	2.5e-09	0.2%
COc1ccc2[nH]cc(CCNc3nc(-c4ccc(C(=O)N(C)C)cc4)nc4ccccc34)c2c1	12%	i	i	3.6e-09	-0.5%
CCN(CC)C1CC(=O)N(c2cccc(C)c2)C1=O (configuration not stated)	-1%	.	.	.	3.1%
CCNS(=O)(=O)c1cc(S(C)(=O)=O)ccc1Cl	6%	i	i	5.8e-09	-1.0%

Next part:
SMILES	TSHR ag	Resorufin autofl	A488 autofl	A647 fluor	AID923
COc1cccc(NC(=O)CSc2nnc(-c3cc(-c4ccccn4)nc4ccccc34)o2)c1	-8%	i	i	5.1e-09	-0.6%
CCC(=O)Nc1nc(CC(=O)Nc2ccccc2)cs1	-4%	i	i	4.2e-08	-0.9%
CC1(C)CC(=O)C2=C(C1)N(Cc1ccco1)C(=O)C2(O)C(F)(F)F (configuration not stated)	.	i	i	1e-09	.
C=CCNc1nnc(SC2CC(=O)N(c3ccc(OC)cc3)C2=O)s1 (configuration not stated)	.	i	i	1e-09	.
COc1ccc(CC[N@+]2(C)COc3cc4oc(=O)cc(C)c4cc3C2)cc1OC	1%[11.4 µM]	i	i	8.3e-09	-0.5%[11.5 µM]
Cc1ccc(-c2nc3ncccc3o2)cc1NC(=O)Cc1ccc(Cl)cc1	0%[11.4 µM]	.	.	.	0.4%
O=C(NCC1CCCO1)c1ccc2c(c1)OCO2 (configuration not stated)	-1%	.	.	.	-0.4%
CCC1CCCCN1C(=O)Cn1c(C(=O)OC)cc2ccsc21 (configuration not stated)	?	i	i	1.9e-08	1.2%
O=C(NC1CC2CCCC(C1)N2C(=O)NC1CCCCC1)c1ccccc1 (configuration not stated)	1%	i	i	1.8e-08	1.0%
CC(C)COc1nc2ccccc2nc1C(C#N)C(=O)NC1CCCCC1 (configuration not stated)	.	i	?	5.1e-08	.

The list continues.
SMILES	TSHR ag	Resorufin autofl	A488 autofl	A647 fluor	AID923
COc1cc2c(cc1OC)C(c1cccs1)NCC2 (configuration not stated)	5%[11.4 µM]	i	i	1.2e-09	0.8%
COc1ccc(C2/C(=C(/O)c3ccccc3)C(=O)C(=O)N2c2ncccn2)cc1OC (configuration not stated)	.	i	i	2.8e-09	.
CC(C)CO/N=C1/C[C@@H](O)[C@@H](O)[C@@H]2[C@@H]3C(=O)N(C4CCCCC4)C(=O)[C@H]3CC[C@H]12	-1%[11.4 µM]	.	.	.	-3.1%[11.5 µM]
COc1cc(C(=O)N(Cc2cc3ccccc3[nH]c2=O)CC2CCCO2)cc(OC)c1OC (configuration not stated)	2%	i	i	2.1e-09	0.5%
CCCCC(=O)Nc1cccc(-c2nn3c(C)nnc3s2)c1	9%	i	i	3.2e-08	2.9%
N#CC1=C(N)OC2=C(C(=O)CCC2)C1C1C=CCCC1 (configuration not stated)	?	.	.	.	4.1%
Cc1cc(C)cc(OCc2nnc(SCC(=O)Nc3ccccc3)o2)c1	10%	i	i	4.4e-08	-0.1%
CC1(C)CC2CC(C)(CN2C(=O)CCCN2C(=O)c3ccccc3C2=O)C1 (configuration not stated)	15%	.	.	.	-0.9%
N/C(=N\c1nc2c(c(=O)[nH]1)CCCC2)Nc1ccccc1	5%	i	i	1e-09	-0.9%
O=C(CC1Sc2ccccc2NC1=O)Nc1cccc(C(=O)O)c1 (configuration not stated)	3%	.	.	.	1.3%

The results go on.
SMILES	TSHR ag	Resorufin autofl	A488 autofl	A647 fluor	AID923
Cc1ccccc1C(=O)NC1CCN(Cc2nnnn2Cc2ccc(F)cc2)CC1	0%	i	i	6.1e-08	0.3%
CC1(C)CC(=O)C=C(Nc2cc(-c3ccccc3)[nH]n2)C1	-5%	.	.	.	4.2%
CSc1cccc(NC(=O)CSc2nnc(C)s2)c1	-3%	i	i	6.5e-08	-1.1%
O=C(Cc1cc(=O)[nH]c(=O)[nH]1)N1CCC(Cc2ccccc2)CC1	-18%	.	.	.	-2.4%
COc1ccc(-n2ncc3c(NCc4cccs4)ncnc32)cc1	1%	i	i	1e-09	-1.5%
Cc1ccc(C(=O)Nc2cccc(C(=O)NCc3ccco3)c2)cc1	6%	i	i	2.2e-08	-0.4%
Cc1nnc(N(CCC#N)CCC#N)s1	-4%	i	i	9.6e-09	-0.2%
CN/S(=N/S(=O)(=O)c1ccccc1)c1ccc(C)cc1 (configuration not stated)	-3%	i	i	9.2e-09	3.0%
COc1ccc2nc(-c3ccccc3)[nH]c2c1	?	i	i	8.7e-09	2.0%
O=C(COC(=O)c1ccc(S(=O)(=O)Nc2ccccc2)cc1)NCCN1C(=O)CSC1=O	-4%	i	i	1e-09	-0.9%

(next part)
SMILES	TSHR ag	Resorufin autofl	A488 autofl	A647 fluor	AID923
O=C(NC12CC3CC(CC(C3)C1)C2)N1CCN(C(=O)C2CCCO2)CC1 (configuration not stated)	-2%	i	i	6.4e-09	-0.4%
COc1nc(Nc2cccc(C(F)(F)F)c2)nc(OC)n1	-11%	i	i	3.2e-09	3.7%
Nc1nc(Nc2cccc3ccccc23)nc(C2CCCC2=O)n1 (configuration not stated)	7%	i	i	1e-09	-0.2%
CC(=O)C1=C(O)C(=O)N(CCc2c[nH]c3ccccc23)C1c1ccc(O)cc1 (configuration not stated)	0%	i	i	2e-08	1.5%
CC(C)CC(NC(=O)COc1ccccc1)C(=O)O (configuration not stated)	-1%	i	i	1e-09	0.7%
CS(=O)(=O)NCCSc1nnnn1-c1ccccc1	4%	i	i	2.7e-08	1.2%
CC(=O)N1CCN(C(=O)COc2ccc(Br)cc2)CC1	-3%	i	i	8.6e-09	1.1%
CC(=O)N=c1sc2ccccc2n1C	4%	i	i	1.9e-09	-2.3%
CC(C)Nc1nc(N(c2ccccc2)c2ccccc2)nc(-n2ccnc2)n1	.	i	i	3.3e-09	-1.7%
CCCN(S(=O)(=O)c1ccc(OCC)cc1)S(=O)(=O)c1cccs1	?	i	i	1e-09	0.0%

The results go on.
SMILES	TSHR ag	Resorufin autofl	A488 autofl	A647 fluor	AID923
O=C(CSc1nc2ccccc2[nH]1)NCCN1CCCCC1	?	i	i	1e-09	0.0%
Cc1ccc2c(COC(=O)c3cnc(C)cn3)cc(=O)oc2c1	6%	i	i	1.1e-09	-1.2%
CCn1nc(C(=O)OCC(=O)c2c[nH]c3ccccc23)c2ccccc2c1=O	-8%	i	i	3.9e-08	2.1%
CCOC(=O)Cn1cnc2c(cnn2-c2ccc(Cl)cc2)c1=O	11%	i	i	1e-09	-0.2%
Nc1cc(=O)[nH]c(SCCNS(=O)(=O)c2ccccc2)n1	-8%	i	i	2.2e-08	0.2%
O=C(COC(=O)c1cccs1)c1ccc2c(c1)OCCO2	5%	i	i	3.1e-09	0.5%
CCNC(=O)C1CC(=O)N(CC)C(=Nc2cc(Cl)c(O)c(Cl)c2)S1 (configuration not stated)	4%	i	i	3.9e-09	-1.5%
O=C1CC(N2CCCN(C3CC(=O)N(c4ccc(F)cc4)C3=O)CC2)C(=O)N1c1ccc(F)cc1 (configuration not stated)	9%	i	i	1.1e-09	0.2%
O=S(=O)(O)CCN1CCOCC1	-4%[11.4 µM]	i	i	3.6e-08	-0.5%
CC(C)CCn1c(N)c(S(=O)(=O)c2cccs2)c2nc3ccccc3nc21	13µM*	i	i	3.4e-09	17%

A draw from above in order of molar mass, largest number first:
SMILES	TSHR ag	Resorufin autofl	A488 autofl	A647 fluor	AID923
CC(C)CCn1c(N)c(S(=O)(=O)c2cccs2)c2nc3ccccc3nc21	13µM*	i	i	3.4e-09	17%
CCNC(=O)C1CC(=O)N(CC)C(=Nc2cc(Cl)c(O)c(Cl)c2)S1 (configuration not stated)	4%	i	i	3.9e-09	-1.5%
CCn1nc(C(=O)OCC(=O)c2c[nH]c3ccccc23)c2ccccc2c1=O	-8%	i	i	3.9e-08	2.1%
CCOC(=O)Cn1cnc2c(cnn2-c2ccc(Cl)cc2)c1=O	11%	i	i	1e-09	-0.2%
O=C(CSc1nc2ccccc2[nH]1)NCCN1CCCCC1	?	i	i	1e-09	0.0%
O=C(COC(=O)c1cccs1)c1ccc2c(c1)OCCO2	5%	i	i	3.1e-09	0.5%

Laid out differently: entries from further up
Sequence of screens: TSHR ag | Resorufin autofl | A488 autofl | A647 fluor | AID923
CCn1nc(C(=O)OCC(=O)c2c[nH]c3ccccc23)c2ccccc2c1=O
    -8% | i | i | 3.9e-08 | 2.1%
CCOC(=O)Cn1cnc2c(cnn2-c2ccc(Cl)cc2)c1=O
    11% | i | i | 1e-09 | -0.2%
Nc1cc(=O)[nH]c(SCCNS(=O)(=O)c2ccccc2)n1
    -8% | i | i | 2.2e-08 | 0.2%
O=C(COC(=O)c1cccs1)c1ccc2c(c1)OCCO2
    5% | i | i | 3.1e-09 | 0.5%

More entries.
SMILES	TSHR ag	Resorufin autofl	A488 autofl	A647 fluor	AID923
COc1ccc(C)cc1S(=O)(=O)N1CCN(c2cccc(C(F)(F)F)c2)CC1	13%	i	i	5.6e-08	-2.3%
O=C(O)COc1cccc(NC(=O)C2CCCO2)c1 (configuration not stated)	-3%	i	i	1e-09	2.6%
CCOC(=O)C1=C(c2ccccc2)NC(SCC(=O)NC2CCCCC2)=C(C#N)C1c1ccco1 (configuration not stated)	.	i	i	5.5e-09	2.6%
O=C(O)c1coc2ccccc12	9%	i	i	1e-09	0.8%
O=C(CCCC(=O)N1CCc2ccccc21)N1CCc2ccccc21	23%	i	i	3.3e-08	1.8%
CCOC(=O)CNC(=O)c1c2c(nc3ccccc13)CCCC2	21%	.	.	.	-1.4%
CC(=O)c1cccc(NC(=O)N[C@@H](CC(C)C)C(=O)O)c1	3%	i	i	3.6e-08	0.3%
CCN1CCN(/C=N/c2nc(C)cs2)CC1	-4%	i	i	5.6e-09	0.9%
CCOC(=O)c1sc(=S)n2c1[nH]c(=O)c1ccc(C(=O)OC)cc12	-12%	i	i	1.6e-08	0.1%

Only part of the results is shown; the hit share may differ from the screen's.
